Beta2AR agonist: beta2AR agonists driving receptor internalization, primary screen, cell-based, FAP fluorogen, flow cytometry | AID 504454, 2011 | Beta-2 adrenergic receptor (Homo sapiens), P07550 | Am2.2-beta2AR cells; reference of the scale not given here | response, % (no concentration beside the values) | actives 0.43% (n = 340,000);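 active = response above a set limit, near 3 SD of response in nonfluorescent compounds, cut at about 42% in these data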;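 also: stock transfer was 100 nL into about 11 µL; a reference agonist was the positive control; negative values mostly stem from fluorescent compounds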
Target sequence (P07550 whole entry, looked up): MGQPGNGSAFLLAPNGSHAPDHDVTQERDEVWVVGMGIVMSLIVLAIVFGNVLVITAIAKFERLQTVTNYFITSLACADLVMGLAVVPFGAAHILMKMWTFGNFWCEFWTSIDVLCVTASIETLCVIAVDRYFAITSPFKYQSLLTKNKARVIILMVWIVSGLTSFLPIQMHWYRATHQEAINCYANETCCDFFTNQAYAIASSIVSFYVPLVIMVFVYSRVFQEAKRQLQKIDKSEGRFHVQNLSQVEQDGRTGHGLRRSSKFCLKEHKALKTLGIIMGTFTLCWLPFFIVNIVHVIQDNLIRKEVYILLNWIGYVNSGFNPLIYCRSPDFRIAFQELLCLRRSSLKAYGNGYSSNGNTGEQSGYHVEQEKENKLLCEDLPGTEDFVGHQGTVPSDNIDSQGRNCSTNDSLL
LANA-H2A inh: blockers of LANA interaction with H2A/H2B – biochemical, FP readout, HTS, primary screen; Protein LANA1 (Human herpesvirus 8 type P (isolate GK18)), Q9QR71; cell-free LANA-H2A/H2B peptide, fluorescence polarization; inhibition, % (test concentration not listed); actives 0.6% (n = 320,000); in the data active = inhibition mostly above about 10%, no sharp cut-off; inactive = mostly below about 6.7%;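 also: stock transfer was 7.5 nL into about 10 µL; 0% = median of vehicle wells and 100% = median of positive control wells; one replicate is shown; the record names a cut of 25% in any replicate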
HNF4A DNA FP: change in binding of human HNF4A to DNA, primary screen, biochemical, fluorescence polarization, FITC-DNA | Hepatocyte nuclear factor 4-alpha (Homo sapiens), P41235 | 1 h | activity change, % at 10 µM | actives 0.3% (n = 360,000) | AID 1224865, 2016; in the data active = activity change above about 30%, passing the limit was not always enough;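 also: controls were the assay level and a saturating level of protein; the project sought stronger binding though the title names inhibitors; some compounds called inactive have numbers as strong as hits; positive values seem to mean higher polarization but the record does not say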
UCH37 DUB inh: inhibitors of human UCH37 deubiquitinase, primary screen, biochemical, Ub-AMC cleavage, fluorescence | Ubiquitin carboxyl-terminal hydrolase isozyme L5 (Homo sapiens), Q9Y5K5 | purified proteasome/UCH37 | inhibition, % (test concentration not listed) | actives 0.33% (n = 330,000);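 active = mean of two replicates above 20%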;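 also: 0% = compound-free wells with enzyme and 100% = wells lacking proteasome; stock transfer was 100 nL into about 20 µL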
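Signal – fluorescence, ex 355 nm, em 460 nm · System – Proteasome-bound UCH37 · Input – 0.15 nM proteasome as dispensed · Timing – 30 min preincubation with enzyme, 25 min cleavage at room temperature · Read-out basis – percent inhibition of cleavage signal versus uninhibited and no-proteasome wells · Medium – Tris-HCl pH 7.4 with ATP-MgCl2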
E coli growth: E. coli growth inhibition, primary screen, OD600. Escherichia coli growth, 23 h; stronger effect = lower value. OD600 absorbance (test concentration not listed). actives 0.21% (n = 330,000);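 active = OD600 absorbance below the run mean of sample wells minus 3.6 SD, in any replicate, cut at about 0.56 in these data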;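 also: stock transfer was 300 nL into about 60 µL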
FGF22 binding: binders of human FGF22 protein, primary screen, FGF22 synaptogenesis inhibitor project, biophysical, thermal shift, single point | recombinant FGF22 thermal shift, SYPRO orange fluorescence; percent of sucrose octasulfate shift, DMSO zero | AID 651658, 2012 | actives 1.5% (n = 340,000) | calls only at 9.99 µM;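 active = melting point raised past a set limit in the mean and every replicate; three in four hits are not shown here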
Target sequence (Q9HCT0 whole entry, looked up): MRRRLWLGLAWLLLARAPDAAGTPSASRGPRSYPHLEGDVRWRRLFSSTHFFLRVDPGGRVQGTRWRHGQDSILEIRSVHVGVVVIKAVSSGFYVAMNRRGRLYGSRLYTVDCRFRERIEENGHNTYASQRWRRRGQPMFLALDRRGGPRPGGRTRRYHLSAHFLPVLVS
ALR inh: inhibitors of human ALR sulfhydryl oxidase, primary screen, biochemical, H2O2 detection, HRP-luminol luminescence, single point. FAD-linked sulfhydryl oxidase ALR (Homo sapiens), P55789. purified ALR, DTT oxidation. inhibition, % (no concentration beside the values). actives 3.8% (n = 290,000). AID 485317, 2010;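 active = mean and each replicate at 75% or more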;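 also: stock transfer was 7.5 nL into about 7.5 µL; 0% = neutral wells and 100% = wells with inactivated enzyme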
Target sequence (P55789 whole entry, looked up): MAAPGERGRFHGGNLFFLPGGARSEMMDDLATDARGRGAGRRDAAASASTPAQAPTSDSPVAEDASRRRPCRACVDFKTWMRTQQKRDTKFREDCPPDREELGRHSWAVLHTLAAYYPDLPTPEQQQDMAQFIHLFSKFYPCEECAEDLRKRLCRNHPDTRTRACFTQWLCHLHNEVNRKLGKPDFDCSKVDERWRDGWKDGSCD
Numbers without * were called inactive; i = inactive; / = not tested or not shown. A portion of the library (hit frequency here may not be typical).

SMILES	Beta2AR agonist	LANA-H2A inh	HNF4A DNA FP	UCH37 DUB inh	E coli growth	FGF22 binding	ALR inh
Cc1occc1C(=O)NN1C(=O)C2C3CCC(O3)C2C1=O (centres undefined)	5.2	0.7	-1.3	2.7	0.708	i	2.0
COc1ccc(S(=O)(=O)N2CCCCC2)cc1NC(=O)CCNC(=O)c1ccc(Br)cc1	0.2	-0.8	-3.9	0.0	0.647	i	-6.0
CN(Cc1cccnc1)C(=O)c1ccc2nc(Cc3ccccc3F)oc2c1	2.4	4.7	2.6	1.3	0.673	i	96.8*
O=C(O)c1nccnc1C(=O)NCc1csc2ccc(Cl)cc12	-6.8	-0.8	-2.8	6.4	0.688	i	-3.0
O=C(O)c1nc(N2CCCC2)ncc1Cl	5.7	0.6	1.1	3.0	0.701	i	-0.8
Cc1ccsc1C1CC(=O)OC2=C1C(=O)CC(C)(C)C2 (centres undefined)	/	5.6	/	-2.1	0.691	/	-10.4
Cc1ccc(/C=C2\Oc3cc(OC(=O)N4CCOCC4)ccc3C2=O)cc1	-10.1	-0.3	-3.3	2.2	0.669	/	-2.8
CCn1c(SCC(=O)Nc2ccccc2C(=O)OC)nnc1-c1cccc(C)c1	8.1	4.5	0.1	-0.8	0.699	/	-4.0
Cc1cc(N(CN2CCCC2=O)C(=O)c2ccc(F)cc2)no1	/	1.6	-1.3	-1.5	0.735	/	-0.8
Cc1ccc(C(=O)Nn2cnnc2)cc1[N+](=O)[O-]	-2.0	1.7	2.2	1.5	0.699	i	2.7
O=C(COC(=O)c1cc(=O)[nH]c2ccccc12)NCCc1ccccc1	-1.8	-5.0	-0.8	-26.6	0.699	i	-0.2
CCN(C(=O)c1cc2ccccc2oc1=O)c1cccc(C)c1	-0.7	-1.7	-2.6	4.5	0.666	/	-5.8
COc1cc2[nH]c(=S)n(CCCN3CCOCC3)c(=O)c2cc1OC	4.1	3.2	-0.7	3.9	0.648	/	-7.3
O=C(CS(=O)CC(=O)Nc1cccnc1)Nc1ccc(F)cc1 (centres undefined)	-3.7	2.5	2.8	1.3	0.715	/	-4.8
O=[N+]([O-])c1ccc(NCc2ccccc2N2CCC(CO)CC2)nc1	5.2	-3.1	-0.9	6.7	0.669	i	4.8
COc1cc(/C=C2/N=C(C3CCCCC3)OC2=O)cc(OC)c1OC	21.8	1.1	3.7	1.5	0.669	/	-1.6
CC(C)CNC(=O)c1ccc2c(c1)C(=O)N(C1CCCCC1)C2=O	13.7	1.3	-1.5	3.2	0.631	i	-31.1
Cc1cccc(OCCNC(=S)NC(=O)c2cccnc2)c1	-11.6	0.3	-2.5	2.9	0.685	/	-3.7
COCCCNC(=O)c1cn(-c2cccc(OC)c2)c(=O)c2ccccc12	-0.2	2.3	1.9	-0.5	0.677	i	-12.0
COc1cc(C(=O)N2CCN(S(=O)(=O)c3ccc(C)cc3C)CC2)ccc1OCC(=O)N1CCOCC1	3.0	1.9	5.5	3.8	0.727	i	-0.2
COc1ccc(C(=O)C[n+]2ccc3c(c2)nc(-c2ccccc2)n3C)cc1	-5.2	/	2.3	-0.1	0.656	/	/
COc1cccc(NC(=O)COC(=O)c2cc(S(=O)(=O)N3CCOCC3)ccc2C)c1	4.7	2.8	0.8	0.7	0.676	/	-6.7
CCCCNc1c([N+](=O)[O-])cc(C(=O)O)cc1[N+](=O)[O-]	0.9	/	-1.1	7.7	0.638	/	/
COc1nc(NCC(C)C)nc(Oc2ccc(=O)n(-c3ccccc3)n2)n1	-1.7	0.8	-4.7	1.4	0.786	i	78.5*
CSC(=O)NC12CC3CC(CC(C)(C3)C1)C2	-3.3	1.5	1.8	1.5	0.696	/	-27.2

Entries above containing fluorine (three):
SMILES	Beta2AR agonist	LANA-H2A inh	HNF4A DNA FP	UCH37 DUB inh	E coli growth	FGF22 binding	ALR inh
CN(Cc1cccnc1)C(=O)c1ccc2nc(Cc3ccccc3F)oc2c1	2.4	4.7	2.6	1.3	0.673	i	96.8*
Cc1cc(N(CN2CCCC2=O)C(=O)c2ccc(F)cc2)no1	/	1.6	-1.3	-1.5	0.735	/	-0.8
O=C(CS(=O)CC(=O)Nc1cccnc1)Nc1ccc(F)cc1 (centres undefined)	-3.7	2.5	2.8	1.3	0.715	/	-4.8

The listing picks up, repeating the 2 entries before the break.
SMILES	Beta2AR agonist	LANA-H2A inh	HNF4A DNA FP	UCH37 DUB inh	E coli growth	FGF22 binding	ALR inh
COc1nc(NCC(C)C)nc(Oc2ccc(=O)n(-c3ccccc3)n2)n1	-1.7	0.8	-4.7	1.4	0.786	i	78.5*
CSC(=O)NC12CC3CC(CC(C)(C3)C1)C2	-3.3	1.5	1.8	1.5	0.696	/	-27.2
CC(=O)N1c2ccc(S(=O)(=O)N3CCC(C(=O)NCc4ccc(N(C)C)cc4)CC3)cc2CC1C (centres undefined)	2.2	0.8	0.0	1.9	0.689	i	-6.4
O=C(N/N=C1\CCCc2ccccc21)c1cccc(Br)c1	-13.6	6.5	2.0	/	/	/	-4.6
COC(=O)C(=Cc1ccc(-c2ccsc2C(=O)OC)o1)C(=O)OC	0.2	1.0	1.2	-86.6	0.645	i	2.4
CC1CCN(S(=O)(=O)c2ccc3c(ccn3CC(=O)O)c2)CC1	-6.9	-2.4	4.2	3.1	0.647	i	-1.1
CC1CCN(S(=O)(=O)c2ccc(C(=O)NNC(=O)C3CC3)cc2)CC1	7.0	2.0	3.1	1.2	0.666	i	-1.4
CCOc1ccccc1CNc1ccc(N2CCOCC2)c(C(=O)O)c1	1.2	-1.1	-0.5	-17.5	0.72	i	2.8
COc1ccc(CCNC(=O)CCC(=O)NC2CCCC(C)C2C)cc1OC (centres undefined)	5.4	3.8	2.2	0.8	0.707	i	-5.8
CSc1nnc(-c2ccncc2)n1CCCN1CCCC1=O	-4.4	0.1	0.5	3.2	0.737	/	98.1*
Cc1cccc2cc3c(nc12)SC(=NCC1CCCO1)N(Cc1ccco1)C3 (centres undefined)	-8.4	3.8	-9.0	-6.5	0.669	/	-11.4
c1ccc(C2=Nc3ccccc3OC2)cc1	10.1	-0.3	2.3	-3.0	0.695	/	21.0
CCN(c1ccc(NC(=O)CCc2nc3sc4c(c3c(=O)[nH]2)CCCC4)cc1)C(C)C	17.5	3.3	1.9	2.9	0.672	i	15.7
C=C1CCC2[C@](C)(CO[C@@H]3O[C@H](CO)[C@@H](O)[C@H](O)[C@H]3O)CCC[C@@]2(C)[C@@H]1CCC1=CCOC1=O (some centres undefined)	-6.4	0.2	0.8	0.7	0.695	i	-8.9
Cc1ccc(S(=O)(=O)Nc2c(C)n(C)n(-c3ccccc3)c2=O)cc1C(=O)OC(C)C(=O)c1ccccc1 (centres undefined)	1.2	/	-2.1	4.7	0.68	i	/
COc1ccc(C(=O)Nc2cccc(C(=O)Nc3cc(C)ccn3)c2)cc1	-6.8	/	-0.3	/	/	i	/
CCOc1ccc(NC(=O)c2ccc(NC(=O)c3cn4c5c(c(N6CCN(C)CC6)c(F)cc5c3=O)OCC4C)cc2)cc1 (centres undefined)	30.2	4.6	9.7	-83.7	0.0665*	/	-10.8
COc1ccccc1OCCn1c(SCC(N)=O)nc2ccccc21	-1.5	3.9	-2.3	4.0	0.66	i	-16.4
CCCSCC(=O)Nc1ncc2c(n1)-c1ccccc1CC2	4.7	6.9	-8.9	-16.4	0.659	i	-16.3
O=C(NCC(O)c1ccc([N+](=O)[O-])cc1)C(c1ccccc1)c1ccccc1 (centres undefined)	9.7	-10.9	-1.8	1.6	0.582	i	-1.8
O=C1C=C(NCc2ccc3c(c2)OCO3)CC(c2ccccc2)C1 (centres undefined)	/	4.5	/	6.1	0.677	/	-15.3
CCCC(=O)Nc1ccc2nc(SCC(=O)Nc3nccs3)sc2c1	-0.4	1.7	0.4	-10.7	0.723	/	98.8*
Cc1nn(-c2cc(C(F)(F)F)ccc2Cl)c2nc(C(F)(F)F)[nH]c(=O)c12	-1.6	1.6	3.4	6.2	0.683	/	21.4
Cc1ccccc1NC(=O)Cc1nnc(SCc2ccc(Cl)c(Cl)c2)n1C	1.4	-5.2	-0.7	4.6	0.661	/	7.0
COc1cccc(OC)c1C(=O)Nc1ccccc1C(=O)N1CCCCCC1	-1.9	3.1	1.7	-0.1	0.697	i	5.6
[O-]/C(=C(\C(=S)Nc1ccc(SC(F)F)cc1)[n+]1ccccc1)c1cc(Cl)ccc1Cl	-4.7	3.0	3.0	6.7	0.758	i	-10.1
O=C(N/N=C/c1ccc2c(c1)OCO2)c1ccc(Cn2cc([N+](=O)[O-])cn2)o1	-1.7	3.9	-2.1	/	/	i	29.3
(further entries)
SMILES	Beta2AR agonist	LANA-H2A inh	HNF4A DNA FP	UCH37 DUB inh	E coli growth	FGF22 binding	ALR inh
CCN(/N=C/c1ccc(Cl)cc1)c1cc(=O)n(C)c(=O)[nH]1	2.2	1.5	3.0	/	/	i	-24.6
COc1cc(NS(=O)(=O)c2ccc(NC(=O)C3CCCO3)cc2)nc(OC)n1 (centres undefined)	-0.8	3.3	2.4	0.0	0.7	/	-6.6
COc1ccc(OCC(=O)Nc2cc(S(=O)(=O)N3CCCC3)ccc2OCC(F)(F)F)cc1	1.9	/	-5.9	1.8	0.684	i	/
CCN(CC)C(=O)CN(C#N)c1nc(NC(C)C)nc(NC(C)C)n1	-6.8	3.7	-1.2	2.7	0.71	/	-6.9
COc1cc(S(=O)(=O)NCc2ccccn2)ccc1Cl	-3.7	-1.1	-2.6	0.3	0.642	i	-17.4
COc1cc(/C=N/N2CCN(c3ccccc3)CC2)ccc1OC(C)=O	-7.7	4.5	-1.6	/	/	i	63.2
COc1ccc(NC(=O)CN(Cc2ccccc2)S(C)(=O)=O)cc1OC	-2.4	2.5	2.1	3.1	0.697	i	/
Cc1cc(C)cc(OC(C)c2ccnc3nc(/N=C/N(C)C)nn23)c1 (centres undefined)	-5.8	3.8	-1.6	/	/	/	-10.5
Brc1cccc(-c2nnc3sc(CN4CCCCC4)cn23)c1	-2.5	-2.7	-6.7	3.4	0.661	i	-0.8
C/C(=N\NC(=O)c1cc2ccccc2cc1O)c1cc2ccccc2o1	2.9	-0.3	3.1	/	/	i	/
CCc1nc(CN2CCN(Cc3ccc(F)c(F)c3)C(CCO)C2)c(C)[nH]1 (centres undefined)	0.0	5.6	0.6	2.2	0.741	i	-7.9
COc1cccc(N(CC(=O)NC2CCCC2)C(=O)CCCC(=O)Nc2ccccn2)c1	-1.2	-6.1	1.7	1.7	0.679	i	-3.5
CO[C@H]1O[C@H](CBr)[C@@H](OC(=O)c2ccccc2)[C@H](O)[C@H]1O	4.4	4.2	-0.7	2.0	0.66	/	-10.2
COc1ccc(Nc2c[nH]c(=O)[nH]c2=O)cc1	8.9	/	-0.5	3.7	0.716	i	/
Cc1ccc(NC(=O)c2c(C(F)(F)F)nn(C)c2Cl)cc1C	1.4	-3.4	0.9	0.5	0.718	/	3.0
NC(=O)c1ccccc1	5.9	-2.6	-6.7	0.8	0.689	i	-8.8
C[C@H]1COC(=O)[C@H](Cc2ccc(F)cc2)CC/C=C/C[C@@H](CC(=O)N(CCO)Cc2ccccc2)C(=O)N1	0.8	/	1.5	-1.4	0.724	i	/
CCOC(=O)c1c(SCC(=O)Nc2nccs2)nc(C)c(C)c1C	-0.6	1.6	2.2	-1.1	0.711	i	-0.6
Cc1ccc(N(CC(=O)N/N=C/c2ccco2)S(=O)(=O)c2ccccc2)cc1	-6.6	-4.8	0.2	/	/	i	24.4
CCN(C(=O)Cn1c(=O)oc2ccccc21)c1ccc(C)c(C)c1	4.5	5.3	2.3	1.1	0.695	i	-1.3

Bioassay records (PubChem)
